CtBP-E1A blk = inhibitors of CtBP/E1A interaction; AlphaScreen GST-E1A/His-CtBP binding, 1536-well; active compounds read low; control for the full effect not named in the record; activity change, % (test concentration not listed); 340,000 compounds, 0.49% hits; in the data active means activity change below about -65%; inconclusive means about -30% to -65%; inactive means above about -30%; further: on the % scale 0 is the no-effect control and ±100 the full control effect
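Protein mix (5X: 125 nM each GST-E1A, His-CtBP) was incubated with pinned compound 2 h at 37 deg C in dark, in 50 mM Tris pH 8.0 buffer with 300 mM NaCl. Glutathione donor and nickel acceptor beads followed; AlphaScreen signal read after 1 h.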
ClpP mod = qHTS Assay for Activators of ClpP | Potency, µM (highest dose often 57.5 µM), without a hit: at the top dose activity change, negative = active | 340,000 compounds, 1.9% hits | purified B. subtilis ClpP, FRET peptide cleavage, 20 min | ATP-dependent Clp protease proteolytic subunit (Bacillus subtilis (strain 168)), P80244; active = well fitted falling curve with a large enough effect; inconclusive = small, poorly fitted or top-dose-only effect; inactive = no such curve, though single readings can be large or run the other way; further: potency means the concentration at half of the fitted maximal effect; the source files actives as falling curves though it sought activators and does not explain the sign; nearly all actives have a fitted effect of over 65% in size; many hits overshoot -100%
Target sequence (P80244 whole entry, looked up): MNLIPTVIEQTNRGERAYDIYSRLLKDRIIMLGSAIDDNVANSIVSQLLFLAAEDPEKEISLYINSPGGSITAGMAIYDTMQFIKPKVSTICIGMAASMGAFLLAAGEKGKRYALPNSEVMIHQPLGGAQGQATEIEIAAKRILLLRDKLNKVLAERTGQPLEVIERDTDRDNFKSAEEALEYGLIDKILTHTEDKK
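FRET quenching reversal measured ClpP activation: 10 microg/mL B. subtilis ClpP at pH 8 with the FRET-FV decapeptide, read at 430 nm after 320 nm excitation. The 20-min minus 0-min signal was scaled between DMSO/no-enzyme wells and ADEP (5.8 microM final).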
Menin-MLL FL inh = inhibitors of human menin-MLL interaction, wild-type MLL peptide | 290,000 tested, under 10 active | Fluorescence polarization, fluorescein-MLL peptide displacement from menin | FP activity change, % at 61.4 µM; inconclusive = falling polarisation curve, or a change in total fluorescence; inactive = total fluorescence flat and polarisation flat or rising; no compound was filed as active; the % refers to the polarisation; negative = inhibition;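 further: % of control where 0% means no effect; inhibitors lower the polarisation; unlabelled MLL peptide was the positive control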
TRPV1 potentiator = enhances activation of the human vanilloid receptor TRPV1 | Q8NER1 | TRPV1-expressing cells, Fluo-8 calcium influx, capsaicin EC20 potentiation; host cell line not named in the record; control for the full effect not named in the record | potentiation, % at 8.33 µM | 320,000 compounds, 0.02% hits | AID 540277; active means potentiation above 80%; inconclusive means 30% to 80%; inactive means below 30%; further: 0% is about no effect
Target sequence (Q8NER1 whole entry, looked up): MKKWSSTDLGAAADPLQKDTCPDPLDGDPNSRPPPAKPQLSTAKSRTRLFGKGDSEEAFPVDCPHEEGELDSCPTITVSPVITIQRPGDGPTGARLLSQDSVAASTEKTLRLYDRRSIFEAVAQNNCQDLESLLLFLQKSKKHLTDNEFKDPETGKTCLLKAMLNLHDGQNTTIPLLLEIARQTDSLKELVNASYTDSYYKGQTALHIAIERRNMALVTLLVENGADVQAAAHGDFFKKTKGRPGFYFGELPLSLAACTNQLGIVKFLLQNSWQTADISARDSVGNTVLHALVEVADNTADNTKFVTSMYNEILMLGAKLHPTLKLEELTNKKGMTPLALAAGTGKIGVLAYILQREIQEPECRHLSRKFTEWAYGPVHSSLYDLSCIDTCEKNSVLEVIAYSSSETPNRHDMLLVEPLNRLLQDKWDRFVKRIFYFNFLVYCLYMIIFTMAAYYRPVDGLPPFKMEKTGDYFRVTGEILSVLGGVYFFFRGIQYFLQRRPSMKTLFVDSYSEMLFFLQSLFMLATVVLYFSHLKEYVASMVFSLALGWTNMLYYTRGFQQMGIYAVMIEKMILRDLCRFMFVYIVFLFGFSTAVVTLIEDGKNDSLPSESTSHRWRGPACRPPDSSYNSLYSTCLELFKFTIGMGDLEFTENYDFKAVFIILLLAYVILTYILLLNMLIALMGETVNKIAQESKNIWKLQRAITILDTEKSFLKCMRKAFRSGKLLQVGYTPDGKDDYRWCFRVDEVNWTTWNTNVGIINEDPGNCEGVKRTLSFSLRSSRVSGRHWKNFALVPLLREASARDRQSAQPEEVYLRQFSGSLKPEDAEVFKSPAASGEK
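Fluo-8 calcium influx in TRPV1-expressing cells, kinetic read (ex 480/em 520 nm). Compound added and read 3 min for agonist activity, followed by capsaicin at EC20 final and 2 min further read for enhancement.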
gsp agonist = activates gsp, the McCune-Albright syndrome mutation. gsp mutant cells, cAMP HTRF, 30 min; control for the full effect not named in the record. Potency, µM (top dose mostly 76.9 µM), for the others: top-dose activation (cAMP increase), hits mostly activators. 340,000 compounds, 0.13% hits; active = well fitted activation curve with a large enough effect; inconclusive = small, poorly fitted or top-dose-only effect, or another doubt; inactive = no such curve, though single readings can be large or run the other way; cell line not stated here;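 further: phosphodiesterase inhibitor Ro 20-1724 added with compounds to block cAMP breakdown; potency means the concentration at half of the fitted maximal effect; nearly all actives have a fitted effect of over 60% in size; about a fifth of the inactives were tested at one dose only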
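Cells in DMEM/10% FBS with G418 were pretreated with compounds in DMSO plus […] (300 uM stock) for 30 min at 37C. cAMP was measured by HTRF (cAMP-d2 plus anti-cAMP antibody-K) after 30 min at room temperature.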
gsp antagonist = antagonizes gsp, the McCune-Albright syndrome mutation. 340,000 compounds, 0.4% hits. AID 624288. gsp-mutant cells, cAMP HTRF, 30 min; control for the full effect not named in the record. Potency, µM (titrated, usually from 76.9 µM), for inactives: at the highest dose activity change, negative = inhibition, actives largely listed as inhibitors; active = falling curve of any shape with a large fitted effect; inconclusive = falling curve, mostly with a smaller effect; inactive = flat or rising curve; cell line not stated here;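 further: intracellular cAMP measured with PDE inhibitor Ro 20-1724 present during compound exposure; potency means the concentration at half of the fitted maximal effect; on the % scale 0 is the no-effect control and ±100 the full control effect; nearly all actives have a fitted effect of over 65% in size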
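Cells, 2000/well, grown 16–24 h in DMEM 10% FBS with 0.5 mg/ml G418, then compounds plus […] (300 uM addition stock), 30 min at 37C. cAMP read by HTRF (cAMP-d2 and anti-cAMP antibody-K in lysis buffer) after 30 min RT.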
Sfp PPTase inh = blocks B. subtilis Sfp PPTase activity; Q9F4F7; Biochemical Sfp PPTase activity, qHTS; Potency, µM, for inactives: max response, negative = inhibition, hits mostly inhibitors; 310,000 compounds, 3.5% hits; active means well fitted inhibition curve with a large enough effect; inconclusive means small, poorly fitted or top-dose-only effect, or another doubt; inactive means no such curve, though single readings can be large or run the other way;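 further: the enzyme is Sfp with the accession as filed and its product quenches rhodamine fluorescence; potency means the concentration at half of the fitted maximal effect; 0% = enzyme reaction without inhibitor and -100% = no enzyme wells; top concentration of the series not given in the record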
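Fluorescence-quenching assay with 15 nM Sfp, 5 uM rhodamine-CoA and 12.5 uM BHQ-2-labelled ybbR peptide in pH 7.6 Hepes/MgCl2 buffer. Enzyme was pre-incubated with compound for 15 min at room temperature. Rate was taken from the 30-min fluorescence change (525/598 nm).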
An asterisk follows results filed as active; u = inconclusive; x = no result given; & = joins results of further samples; [ ] = remark or other dose.

SMILES | CtBP-E1A blk | ClpP mod | Menin-MLL FL inh | TRPV1 potentiator | gsp agonist | gsp antagonist | Sfp PPTase inh
COc1ccc(OC)c(C2CC(=O)c3c([nH]c(C(=O)OC(C)C)c3C)C2)c1 (stereo not given) | -8 | 2.2% | -0.5 | 2 | 14% | 8% | -23%
COc1ccc([N+](=O)[O-])cc1NC(=O)c1ccc(CN(c2ccccc2)S(C)(=O)=O)cc1 | -9 | 1.0% | 3.2 | 9 | 4% | -29% | -2%
Cc1cc(C)nc(N(C#N)Cc2ccccc2C)n1 | x | 0.7% | 5.4 | 12 | -36%[inhibitor] | -1% | -8%
COc1ccc(NC(=O)c2sc3nc(N4CCCC4)c4c(c3c2N)CC(C)(C)OC4)cc1 | x | 3.8% | x | 7 | u | 7% | 10µM*
CN(Cc1ccc(F)cc1)C(=O)c1cccc(NS(=O)(=O)c2ccccc2)c1 | 1 | -1.2% | x | 24 | u | -1% | 8%
CCOc1ccc(C(=O)OCC(=O)N2CCOCC2)cc1OCC | 3 | x | -0.2 | -9 | 0% | 2% | 15%
O=C(N/N=C\c1ccncc1)c1ccc(Cl)s1 | -8 | 1.2% | x | -4 | u | 11% | 8%
CCc1nc(Nc2cccc(OC)c2)c2oc3ccccc3c2n1 | 0 | 1.3% | -15 | 0 | -20%[15.4 µM] | -22% | u
CCc1ccc(S(=O)(=O)N2CC(=O)Nc3ccccc32)cc1 | 4 | -0.5% | -0.4 | 1 | -31% | -5% | 23%
Cc1cc(C)c(C#N)c(SCS(=O)Cc2ccccc2)n1 (stereo not given) | 2 | -1.6% | 0.0 | -6 | -38%[inhibitor] | 1% | 2%
CC(C)NC(=O)N(C)C[C@@H]1OCc2cn(nn2)CCCC(=O)N([C@H](C)CO)C[C@H]1C | 7 | 2.5% | x | x | -5% | x | x
Nc1c(C(=O)O)ccc2c1C(=O)c1ccccc1C2=O | u | x | u | -24 | -19% | u | 5%

Next section, starting with the last 2 of the part before.
SMILES | CtBP-E1A blk | ClpP mod | Menin-MLL FL inh | TRPV1 potentiator | gsp agonist | gsp antagonist | Sfp PPTase inh
CC(C)NC(=O)N(C)C[C@@H]1OCc2cn(nn2)CCCC(=O)N([C@H](C)CO)C[C@H]1C | 7 | 2.5% | x | x | -5% | x | x
Nc1c(C(=O)O)ccc2c1C(=O)c1ccccc1C2=O | u | x | u | -24 | -19% | u | 5%
CC1=Nn2c(nnc2-c2cc(C)[nH]n2)SC1 | -4 | -4.7% | -2.5 | u | u | 3% | -12%
CC(C)(C)NC(=S)NC(C)(C)C | 2 | x | 3.0 | 15 | 2% | 10% | 16%
CN(C)S(=O)(=O)c1ccc(C(=O)Nc2nc(-c3cccs3)cs2)cc1 | 0 | 113% | 3.4 | 28 | -43%[inhibitor] | -12% | 18%
Cc1ccc(C)c(OCCC(=O)Nc2cccc(S(=O)(=O)N3CCCC3)c2)c1 | -2 | 0.3% | x | -5 | 7%[15.4 µM] | -6% | x
Cc1ccccc1NN1C(=O)C=CC1=O | -2 | -2.4% | 2.2 | -1 | -28% | 3% | 5%
CCNC(=S)Nc1ccc(Cc2ccncc2)cc1 | 3 | x | -2.9 | 19 | 9% | -4% | 4%
COc1cc(OC)c(NC(=O)CCCNC(=O)Cn2cnc3sc(C)c(C)c3c2=O)cc1Cl | -18 | x | -0.9 | 14 | 13% | -2% | -22%
O=C(CCCOc1ccccc1)N1CCCCC1 | 10 | u | 3.2 | -12 | 14% | 12% | -2%
CC1(C)Oc2ccc3ccc(=O)oc3c2/C(=C/Nc2ccccc2)C1=O | -2 | 0.6% | 0.6 | -8 | -51%[inhibitor] | 2% | -2%
O=C1CCC(=O)N1c1ccc(NCCc2ccccc2F)c([N+](=O)[O-])c1 | -1 | x | -3.3 | -3 | 6%[15.4 µM] | -2% | 16%
O=C(CSc1nc(=O)n(CCCN2CCOCC2)c2c1CCCC2)Nc1ccccc1Cl | 0 | -12% | x | 2 | 1%[15.4 µM] | -5% | x
Cc1ccc(-c2cnc(NC(=O)c3cccc(Br)c3)s2)c(C)c1 | 2 | u | 0.1 | u | -69%[inhibitor] | -11% | 15%
Cc1ccc(C(=O)NS(=O)(=O)c2ccc(N=NN(C)C)cc2)cc1 | -3 | x | -0.8 | 6 | 16%[15.4 µM] | -19% | -5%
Cc1cc(NCc2ccccn2)ccc1Br | 1 | 0.3% | 0.6 | -4 | 8% | -33% | -15%
C[C@H](CO)N1C[C@H](C)[C@@H](CN(C)C)OCc2cnnn2CCCC1=O | 6 | -0.6% | x | x | -20% | x | x
Cc1[nH]n(-c2ccccc2)c(=O)c1C1(C(F)(F)F)C(=O)N(c2ccc(F)cc2)C2=C1C(=O)CC(C)(C)C2 (stereo not given) | -6 | -2.4% | 1.7 | -1 | -6% | -14% | 36%[activator]
CCCN(C(=O)CSc1nnc(N)s1)c1c(N)n(Cc2ccccc2)c(=O)[nH]c1=O | -4 | -1.7% | x | x | -81%[inhibitor] | 4% | x
Clc1ccc(-c2nc3nc4ccccc4nc3n2Cc2ccco2)cc1 | 7 | -18% | -1.8 | -10 | -3% | 8% | 7.1µM*
O=c1[nH]nc(Cc2ccc([N+](=O)[O-])cc2)c2ccccc12 | -5 | -2.9% | 3.3 | -11 | -3%[15.4 µM] | 1% | 4%
CC(C(=O)OCC(=O)c1ccccc1)N1C(=O)c2ccccc2C1=O (stereo not given) | 4 | -0.5% | 0.9 | -12 | -2%[15.4 µM] | 3% | -8%
COc1ccc(NC(=O)/C(C#N)=C\c2ccc(Br)o2)cc1 | x | 0.7% | 25 | -7 | -23% | 5% | 0%
COc1cc2c(=O)n(CCC(=O)NCC3CCCO3)c(=O)n(CC(=O)c3ccc(Cl)cc3)c2cc1OC (stereo not given) | x | 0.7% | -0.4 | 6 | 54% | -10% | 1%
COc1ccc(-n2c(CCC(=O)O)ccc2-c2ccccc2)cc1 | x | -5.9%&-12% | -0.6 | 4 | 19% | -12% | -24%
O=C1c2ccccc2CC1Sc1nnc(-c2ccncc2)o1 (stereo not given) | -3 | -2.1% | 10 | 3 | 0% | 0% | -17%
CN(Cc1nc2ccccc2c(=O)[nH]1)C(=O)c1ccc(S(=O)(=O)N(C)C)cc1 | 7 | -1.4% | 4.3 | 21 | 13% | 13% | 15%
CS(=O)(=O)N(CC(=O)NCCc1ccccc1)c1cccc([N+](=O)[O-])c1 | -9 | -1.7% | 2.9 | 1 | -4% | 6% | 23%
C=CCNC(=O)C1CC2Cn3c(nc4cc(C)c(C)cc43)C2N1C (stereo not given) | 5 | 0.9% | 0.6 | 2 | x | -2% | 12%
COCCOC(=O)C1=C(C)NC(=O)CC1c1cc2c(cc1Br)OCO2 (stereo not given) | -10 | -1.1% | 5.6 | -16 | 22% | 9% | 11%
Cc1cc(C)nc(/N=C(\N)Nc2ccc(-c3ccccc3)cc2)n1 | -1 | -0.8% | 3.3 | 2 | 2%[15.4 µM] | -9% | -2%
CC1=NN(c2ccccc2)C(=O)C1C=Nc1ccc(N(C)C)cc1 (stereo not given) | u | x | u | 6 | -5%[15.4 µM] | u | u
Cc1cc(C(=O)N2CCN(c3cccc(Cl)c3)CC2)c(C)o1 | -1 | 1.0% | 9.1 | -16 | u | -17% | -9%
C(C#CCN1CCOCC1)#CCN1CCOCC1 | -16 | x | x | x | -65%[inhibitor] | 8% | x
CC(=O)c1ccc(OCCCC(=O)Nc2nnc(C3CC3)s2)cc1 | 4 | -2.0% | x | x | -30% | 4% | x
O=C(Cc1cccc(NC(=O)C2CCCN(C(=O)C3CCCC3)C2)c1)Nc1cccc(C(=O)N2CCOCC2)c1 (stereo not given) | 1 | 0.6% | x | x | x | -8% | x
COc1cc(NC(=S)NCCc2ccccc2)c(OC)cc1NC(=O)C(C)C | -9 | -1.3% | 2.8 | -8 | 13% | 1% | 16%
CCCn1nnc(NC(=O)c2cccc(Cl)c2)n1 | -2 | 0.6% | 0.0 | -7 | 22% | 6% | -3%

Complete entries, looked up by structure:
`COc1ccc(NC(=O)c2sc3nc(N4CCCC4)c4c(c3c2N)CC(C)(C)OC4)cc1` is listed as CtBP-E1A blk = x; ClpP mod = 3.8%; Menin-MLL FL inh = x; TRPV1 potentiator = 7; gsp agonist = u; gsp antagonist = 7%; Sfp PPTase inh = 10µM*
`O=c1[nH]nc(Cc2ccc([N+](=O)[O-])cc2)c2ccccc12` is listed as CtBP-E1A blk = -5; ClpP mod = -2.9%; Menin-MLL FL inh = 3.3; TRPV1 potentiator = -11; gsp agonist = -3%[15.4 µM]; gsp antagonist = 1%; Sfp PPTase inh = 4%
`COc1ccc(-n2c(CCC(=O)O)ccc2-c2ccccc2)cc1` is listed as CtBP-E1A blk = x; ClpP mod = -5.9%&-12%; Menin-MLL FL inh = -0.6; TRPV1 potentiator = 4; gsp agonist = 19%; gsp antagonist = -12%; Sfp PPTase inh = -24%

Following part.
SMILES | CtBP-E1A blk | ClpP mod | Menin-MLL FL inh | TRPV1 potentiator | gsp agonist | gsp antagonist | Sfp PPTase inh
O=C1CSC(c2cccnc2)N1Cc1ccc(Cl)c(Cl)c1 (stereo not given) | x | -3.8% | 7.4 | 20 | 1% | -13% | 8%
CCNC(=S)N(Cc1cc2cccc(C)c2[nH]c1=O)C1CCCC1 | -1 | -3.3% | -0.6 | 1 | 0% | -18% | -9%
CCOc1ccc(C(=O)CSc2nnc(C3CC3)n2C)cc1 | -5 | -3.4% | 0.9 | -6 | 9% | -4% | u
O=C(OCc1cn(-c2ccc(Cl)c(Cl)c2)nn1)c1ccccc1Cl | 16 | -2.3% | 4.0 | 10 | 0% | -4% | 0%
O=C(Nc1ccccc1Cl)NC1(C(=O)N2CCC(O)CC2)CCCCC1 | -2 | x | 3.7 | u | 36% | 4% | 16%
COC(=O)C1=C(C)N=C2SC(C#N)=C(N)N2C1c1cc(OC)c(OC)c(OC)c1 (stereo not given) | 5 | -3.0% | 13 | -9 | -22% | -19% | 3%
Cc1nnc(NC(=O)CSc2nnc(Cc3ccccc3)n2Cc2ccccc2)s1 | 0 | 0.8% | -1.9 | -4 | -29% | -5% | 18%

Compound activity: PubChem BioAssay, National Center for Advancing Translational Sciences (NCATS)
